Screening results: PubChem BioAssay, several laboratories
MLL AF4-AF9 inh – inhibitors of human MLL-AF4/AF9 interaction | P42568 | AlphaScreen, biotin-AF4 peptide binding to FLAG-AF9 | inhibition, % at 10 µM | actives 0.47% (n = 350,000);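 active means every replicate reaching a set inhibition limit, whatever the replicate mean, cut at about 25% in these data; inconclusive means mean inhibition reaches that limit but some replicates miss it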;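 further: 0% = plate neutral control median and 100% = total signal loss; the record names both 10 and 1 µM as test concentration; the first replicate is given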
Target sequence (P42568 whole entry, looked up): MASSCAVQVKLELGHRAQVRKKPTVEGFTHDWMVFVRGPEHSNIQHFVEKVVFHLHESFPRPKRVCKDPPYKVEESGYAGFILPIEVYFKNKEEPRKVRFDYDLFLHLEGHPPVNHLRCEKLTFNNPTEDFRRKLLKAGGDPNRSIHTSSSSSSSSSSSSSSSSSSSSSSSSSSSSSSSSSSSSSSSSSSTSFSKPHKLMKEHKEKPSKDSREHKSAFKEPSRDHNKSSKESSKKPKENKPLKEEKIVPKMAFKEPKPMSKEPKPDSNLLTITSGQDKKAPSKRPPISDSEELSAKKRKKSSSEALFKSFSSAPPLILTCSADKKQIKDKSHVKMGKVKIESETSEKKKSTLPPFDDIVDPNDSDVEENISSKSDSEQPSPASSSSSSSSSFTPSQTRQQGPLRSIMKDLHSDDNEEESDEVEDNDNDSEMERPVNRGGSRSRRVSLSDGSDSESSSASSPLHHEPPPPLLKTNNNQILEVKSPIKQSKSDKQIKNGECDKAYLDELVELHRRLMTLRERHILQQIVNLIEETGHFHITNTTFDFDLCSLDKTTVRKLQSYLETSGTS
Vif TR-FRET – HIV-1 Vif–A3G interaction blockers – biochemical, TR-FRET, GST-Vif 1-94, biotin-A3G peptide, dose response retest, primary screen (AID 1117319). actives 0.57% (n = 260,000). one-dose inhibition, %; IC50 in µM for titrated hits. TR-FRET GST-Vif / biotin-A3G peptide binding; higher % means a stronger effect; test concentration not given here; strong numbers were not always called active;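 active means above the screen mean plus three standard deviations and confirmed in dose response; inconclusive means results disagree or hit not tested in dose response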;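 further: Vif residues 1-94 fused to GST binding biotinylated APOBEC3G peptide 110-148; 0% = full assay without inhibitor and 100% = GST in place of GST-Vif; retest series ran down from 100 µM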
A1 inh – inhibitors of the anti-apoptotic protein A1, read as caspase activation; actives 0.066% (n = 330,000); AID 2462; caspase activation, % (no concentration beside the values); MEF A1-2A-BIM cells, Caspase-Glo 3/7 luminescence, 3 h; percent of clofoctol response, vehicle zero;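 active means over half of replicate activation scores above 10%, or exactly half above 10 with the replicate mean above 10; inconclusive means replicate mean below 10 yet half the replicates above 10; inactive means over half of replicates below 10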;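 further: wells of about 30 µL received 50 nL stock; many hits fall short of the cut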
T cruzi inh – T. cruzi replication inhibition. actives 1.4% (n = 300,000). T. cruzi beta-gal in NIH3T3, luminescence, 90 h. inhibition, % (concentration not given with the values). AID 1885;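 active means mean inhibition across valid replicates above about 55%, limit read from the data; inconclusive means mean below that limit but half or more replicates reach it; inactive means mean below it, under half of replicates reach it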;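 further: signal also drops with host cell toxicity which is not excluded here; 0% = plate median of DMSO wells and 100% = zero luminescence signal; higher percent means less beta-gal luminescence so fewer parasites; stock transfer was 50 nL into about 50 µL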
Beta cell apopt – beta cell apoptosis inhibition; INS-1E cytokine-induced death, ATP luminescence, 48 h; percent of positive-control rescue, neutral wells zero; protection from apoptosis, % (test concentration not listed); actives 0.8% (n = 300,000); AID 435005;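 active means all replicates at 75% or more, or half of them and the mean; inconclusive means half reach 75% but not the mean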;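 further: 0% = cytokine-treated negative control wells and 100% = positive control rescue; higher means more ATP so stronger rescue from cytokine killing; wells of about 40 µL received 100 nL stock; the first replicate is given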
Ecoli rRNA inh – inhibits bacterial ribosomal RNA function over humanized ribosomes; E. coli WT GFP vs humanized-ribosome RFP mutants, fluorescence, 24 h; active compounds read low; DMSO median 0, no signal -100; GFP signal change (wild-type ribosome), % (concentration not given with the values); actives 1.6% (n = 350,000); AID 720706;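 active means significant combined selectivity score with lowered wild-type GFP, culture density cut under 30%, mutant RFP and density less affected; inactive means any of these conditions unmet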; further: one replicate is shown; some compounds called inactive have numbers as strong as hits
Calb FLC – affects C. albicans growth with fluconazole. growth inhibition, % (no concentration beside the values). actives 0.57% (n = 300,000). C. albicans CaCi-2 (fluconazole-resistant clinical isolate) + fluconazole, Alamar Blue growth, 48 h;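 active means most replicates above 75%; inconclusive means exactly half above 75%; inactive means most below 75%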;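 further: all wells also contain fluconazole at 8 µg/ml as a sub-toxic cotreatment; 0% = median of DMSO wells and 100% = median of geldanamycin control wells; wells of about 8 µL received 7.5 nL stock; the first replicate is given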
RanGTP-Impb inh – disruptors of Ran-importin-beta complex formation – biochemical, FRET, CFP-Ran, YFP-importin-beta, homogeneous, primary screen | cell-free CFP-Ran/YFP-importin-beta FRET ratio | inhibition, % (concentration not given with the values) | actives 1.1% (n = 300,000) | AID 2216;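 active means most replicates above 15%; inconclusive means exactly half above 15%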;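 further: 0% = DMSO wells and 100% = Ran loaded with GDP instead of GTP; wells of about 40 µL received 100 nL stock; the first replicate is given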
Ecoli rRNA inh OD600 – also measured in Ecoli rRNA inh; calls as there; OD600 change, %; measured here: OD600 growth;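 optical density of the mix in the first replicate; 0 = DMSO median and -100 = no signal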
Ecoli rRNA inh RFP – second read-out of Ecoli rRNA inh, no call of its own (marks repeat the call); RFP signal change, %; measured here: RFP humanized mutant strains;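 first replicate; 0 = DMSO median and -100 = no signal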
* hit, by the source's call; ? = inconclusive; nt = not tested or not shown; & = joins results of further samples. This is a subset; the hit share may differ from the screen's.

Every second line gives: MLL AF4-AF9 inh, Vif TR-FRET, A1 inh, T cruzi inh, Beta cell apopt, Ecoli rRNA inh, Ecoli rRNA inh OD600, Ecoli rRNA inh RFP, Calb FLC, RanGTP-Impb inh
> O=C1CC2OCC=C3CN4CCC56c7cc([N+](=O)[O-])ccc7N1C5C2C3CC46 (stereo not drawn)
    -0.5, nt, ?, 3, -5, 11, -6, 1.3, -8, 3.5
> CN1C(=O)/C(=C/c2cccn2-c2ccc3ccccc3c2)C(=O)NC1=S
    nt, <8.2µM*, 0.2, -37, -12, nt, nt, nt, -12, 0.1
> Cc1ccc(S(=O)(=O)Cc2ccc(C(=O)N3CCC4(CC3)OCCO4)o2)cc1
    nt, 23%, 1.3, -4, -3, nt, nt, nt, 4, -2.0
> C=C(C)Cn1c(=O)n(CC2CS2)c2ccccc21 (stereo not drawn)
    nt, 28%, 1.0, -14, -6, nt, nt, nt, 5, 0.9
> CC(=Nc1ccc2c(c1)CCC2)c1c(O)n(C2CCCCC2)c(=O)[nH]c1=O
    nt, 10%, 0.2, -1, -3, nt, nt, nt, 7, 3.9
> C/C=C1/CN2C3CC1C(CO)(C(=O)OC)C2Cc1c3n(C)c2ccccc12 (stereo not drawn)
    -1.1, nt, 0.1, -11, nt, 9, 7, 3.6, -1, -4.4
> NC12CN3CN(CN(C3)C1)C2 (tested in a mixture with another compound)
    7.1, 3%, 0.5, -9, -7, 11, 6, -3.3, 49, -4.2
> COC(=O)C1=C(c2cc3ccccc3s2)C[C@@H]2CC[C@H]1N2C(=O)N1CCCC1
    15, nt, -0.3, -10, -11, -30, -47, 1.8, -1, -0.5
> Cc1cc(OCC(=O)N2C[C@H]3C[C@@H](C2)c2cccc(=O)n2C3)c2c(C)cc(=O)oc2c1
    1.0, nt, 1.4, -9, 0, 3, 11, 4.8, 1, 2.4
> CC1CCN(C(=O)c2ccc(N3CC4CC(C3)c3cccc(=O)n3C4)c([N+](=O)[O-])c2)CC1 (stereo not drawn)
    nt, nt, 0.3, 3, 2, nt, nt, nt, 21, 3.1
> COc1cc(OC)cc(C(=O)NC(=S)N2C[C@H]3C[C@H](C2)c2cccc(=O)n2C3)c1
    -8.8, nt, -0.4, 8, -2, nt, nt, nt, 1, 6.8
> COC(=O)CC1(Cc2ccccc2)C(=O)NC(=O)NC1=O
    nt, -2%, -0.1, 11, -4, nt, nt, nt, -1, -2.2
> C[C@]12CCC3C(CCC4=CC(O)CC[C@@]43/C=N/O)C1(O)CCC2C1=CC(=O)OC1 (stereo partly drawn)
    3.3, nt, -0.2, -4, -3, 1, 8, 1.4, 2, -0.8
> COc1ccccc1N1CCN(C2CCCN(C(=O)COc3ccccc3Cl)C2)CC1 (stereo not drawn)
    -0.4, nt, nt, 10, nt, -10, -5, 5.0, 1, -2.0
> CCCn1cc(CN2CCCC(C(=O)c3cccc(OC)c3)C2)c(C)n1 (stereo not drawn)
    0.0, nt, 0.4, 50, -3, 8, 11, 5.8, -9, -1.5
> CCC(=NCc1ccco1)c1c(O)n(-c2ccc(OC)cc2)c(=O)[nH]c1=O
    nt, 4%, -1.5, -8, -6, nt, nt, nt, -2, -4.0
> COC(=O)N(c1ccc(OC)cc1)P1(=S)OCCC(C)O1 (stereo not drawn)
    nt, ?, -0.1, -5, -4, nt, nt, nt, -7, -5.7
> C=CCn1c(O)c(C(C)=NCCN2CCN(C(=S)NC)CC2)c(=O)[nH]c1=O
    0.5, -6%, 0.6, -4, 0, 3, -1, -4.0, -13, -0.1
> O=C(N/N=C/c1c(O)n(-c2cccc3ccccc23)c(=O)[nH]c1=O)c1ccncc1
    4.5, nt, -0.3, -6, 1, 5, -1, 0.7, -10, 5.6
> O=c1c2ccccc2nc(-c2ccccc2)n1-c1ccccn1
    3.5, -1%, -0.4, -11, -5, -4, 2, 0.1, 2, -0.2
> Oc1c(Br)cc(Br)cc1CN1CCN(Cc2ccccc2)CC1
    nt, -3%, -0.9, -1, 3, nt, nt, nt, 3, 0.1
> N#CC1=C(N)Oc2c(c(=O)oc3ccccc23)C1c1ccncc1 (stereo not drawn)
    -12, 3%, 0.4, nt, -9, 6, 3, 1.0, nt, nt
> FC(F)(F)Oc1ccc(NC2=NCCCS2)cc1
    -1.1, -3%, 0.2, 25, nt, 5, 1, 1.6, 6, 4.4
> CC1CCCN(C(=O)CCl)C1 (stereo not drawn)
    -3.8, -7%, -0.9, -11, 3, 4, 2, 2.2, 5, -0.8
> COc1ccc(C2=NCC(=O)N(CC(=O)NCc3ccco3)c3sc4c(c32)CCCC4)cc1OC
    nt, 0%&61%, -0.6, 4, 1, nt, nt, nt, 20, 1.6
> CCOc1ccc(-n2c(O)c(C=Nc3ccc(N4CCOCC4)cc3)c(=O)[nH]c2=O)cc1
    nt, 8%, -0.2, 5, 2, nt, nt, nt, -5, -2.3
> CC1C(c2cccs2)=[N+]([O-])C(C)(C(=O)c2ccc(Cl)cc2)N1O (stereo not drawn)
    nt, nt, ?, 5, -4, nt, nt, nt, -4, 0.9
> O=c1[nH]c(=S)n(-c2ccc(Br)cc2)c(O)c1C=Nc1ccc(N2CCOCC2)cc1
    -3.4, 31%, 0.5, -14, -13, 10, 1, 2.0, -2, ?
> CCc1ccc(N2C(=O)CC(=O)NC2=O)cc1
    -13, nt, -0.6, -10, -6, -1, 0, -1.3, -1, 1.2
> Cc1cccc(CNCCc2c[nH]c3ccccc23)c1
    -0.9, nt, 0.2, 36, nt, 4, -2, 8.1, -10, 1.2
> Cc1cc(C(=O)OCC(=O)Nc2ccc(F)cc2)c(C)n1C1CC1
    -1.6, nt, 0.5, nt, -1, 5, -13, 6.9, nt, nt
> O=c1cccc2n1C[C@@H]1C[C@@H]2CN(CC(O)c2ccc([N+](=O)[O-])cc2)C1 (stereo partly drawn)
    -0.1, -6%, 0.2, -3, 0, -3, -6, -1.8, -3, 5.1
> O=C1CN=C(c2ccc(Br)cc2)c2oc3ccccc3c2N1
    nt, 25%, -0.1, 2, 3, nt, nt, nt, 5, 1.5
> Nc1cccc(N=Cc2c(O)n(Cc3ccc(F)cc3)c(=O)[nH]c2=O)c1
    nt, 23%, 0.7, -15, 0, -4, 7, 7.9, -5, 0.6
> FC(F)(F)c1cccc(-n2nnnc2C2(N3CCOCC3)CCCCC2)c1
    nt, 6%, 0.7, 4, 7, nt, nt, nt, -18, -2.1
> Cc1c(C(c2ccccc2Cl)c2c(O)c3ccccc3oc2=O)c(=O)n(-c2ccccc2)n1C (stereo not drawn)
    nt, 4%, 1.2, -6, -4, nt, nt, nt, 11, -1.2
> Nc1c(C(=O)NCCCc2ccccc2)c2nc3ccccc3nc2n1Cc1cccs1
    nt, 3%, -0.5, 58*, -12, nt, nt, nt, 5, 66*
> C/C=C1/CC(C)C(C)(O)C(=O)OCC2CCN3CCC(OC1=O)C23 (stereo not drawn)
    -5.8, nt, -0.3, -16, 4, -1, 3, -1.2, -9, 2.7
> CN(C)S(=O)(=O)c1cccc(C(=O)N2CCC(C(=O)O)(c3ccccc3)CC2)c1
    -4.7, nt, -0.4, -15, -3, 7, 12, 1.2, 3, -10
> Cc1nn(Cc2ccccc2)c(C)c1C(=O)NCc1ccccc1
    0.5, 8%, 1.1, -10, -1, 9, 14, -2.1, 7, -6.0
> COc1cc(/C=N/NC(=O)CN2CC(c3ccccc3)CC2=O)ccc1OC(=O)N(C)C (stereo not drawn)
    nt, -2%, -1.1, 12, 0, nt, nt, nt, -9, -2.4
> O=P(c1ccccc1)(c1ccccc1)N1CCCCC1
    nt, 27%, 0.7, -13, -5, nt, nt, nt, 2, ?
> CCOc1ccc(C2SCC(=O)Nc3c2c(=O)[nH]n3C2CCCCCC2)cc1 (stereo not drawn)
    nt, 3%, 0.6, 24, 2, nt, nt, nt, 4, 0.8
> COc1ccc([N+](=O)[O-])cc1N=Cc1c(O)n(CCc2ccccc2)c(=O)n(C(C)C)c1=O
    6.5, nt, 0.2, 5, 1, 5, 0, 3.1, 24, -10
> COc1ccc(N2C(=O)NC(=O)C(CCc3ccncc3)(CCc3ccncc3)C2=O)cc1
    nt, 3%, 0.2, 0, -1, nt, nt, nt, -13, 8.6
> C/C(=N\N=C(N)N)c1ccccc1
    -0.5, 23%, 0.4, -6, -3, 22, -11, -2.3, 1, 1.1
> COc1ccc(NC(=O)c2cn(CCC#N)nc2-c2ccc(OC)c(OC)c2)cc1
    -1.1, nt, 0.9, -9, -8, 7, 0, -4.3, 1, 2.5
> C[n+]1c(-c2ccccc2)cc(-c2ccc(Cl)cc2)cc1-c1ccccc1
    2.1, 18%, 1.0, 51, 39, -61, -82, -22, 97*, -3.4
> O=C(Nc1ccc2ccccc2c1)c1nn(C23CC4CC(CC(C4)C2)C3)cc1Br
    nt, -1%, 0.7, 30, 0, nt, nt, nt, 12, 2.0
> Cc1cccc(-n2c(O)c(C)c(=O)[nH]c2=S)c1
    -2.6, 2%, nt, -25, nt, 2, 0, -1.1, ?, 3.8
> CCCCCCC(=O)N/N=C/c1c(O)n(CCCC)c(=S)[nH]c1=O
    -1.8, 8%, 0.2, -16, -2, -8, -7, 4.6, -29, 4.7
> COc1cccc(NC(=O)CN2CC(c3ccccc3)CC2=O)c1 (stereo not drawn)
    2.0, -1%, 1.1, 1, 1, 0, 3, 0.4, -8, 0.8
> COC(=O)C1=C(c2ccc(F)cc2OCc2ccccc2)C[C@@H]2CC[C@H]1N2C(=O)NCc1ccccc1Cl
    -2.7, nt, -0.6, nt, 14, 2, -3, -1.3, nt, nt
> O=C1CC(=O)N(c2cccc(Cl)c2)C(=O)N1
    nt, -1%, 0.0, -11, -2, nt, nt, nt, -12, ?
> CC(=NCC1CCCO1)c1c(O)n(-c2ccccc2)c(=O)[nH]c1=O (stereo not drawn)
    nt, 4%, 0.0, -21, -1, nt, nt, nt, -2, 3.0

Given comma-delimited: entries from further up
canonical_smiles,MLL AF4-AF9 inh,Vif TR-FRET,A1 inh,T cruzi inh,Beta cell apopt,Ecoli rRNA inh,Ecoli rRNA inh OD600,Ecoli rRNA inh RFP,Calb FLC,RanGTP-Impb inh
FC(F)(F)c1cccc(-n2nnnc2C2(N3CCOCC3)CCCCC2)c1,nt,6%,0.7,4,7,nt,nt,nt,-18,-2.1
Cc1c(C(c2ccccc2Cl)c2c(O)c3ccccc3oc2=O)c(=O)n(-c2ccccc2)n1C (stereo not drawn),nt,4%,1.2,-6,-4,nt,nt,nt,11,-1.2
Nc1c(C(=O)NCCCc2ccccc2)c2nc3ccccc3nc2n1Cc1cccs1,nt,3%,-0.5,58*,-12,nt,nt,nt,5,66*
